Anaer choline gr: choline-fed anaerobic bacterial growth inhibition; Gram-negative bacterium anaerobic choline minimal medium, absorbance growth; hits give low values; many inactives read as strong as hits in the columns shown; 0.2% of 55,000 active; calls only; AID 1963822;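 active = growth z-score on choline under -2 at 7 or 20 h with little or no fall on glycerol, limits in tiers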;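 also: stock transfer was 300 nL into about 50 µL; the organism is E. coli; final concentration not given here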
Anaer choline gr early: recorded beside Anaer choline gr, whose call it bears; z-score; measured here: choline growth z-score, timepoint 1;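 score of optical density at 7 h as mean of two plates; lower means less growth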
* marks the source's active call; other numbers are inactive results; i = inactive; & = joins results of further samples.

1) CCC1c2cccn2-c2ccccc2CN1C(=O)NC(C)C (stereo not drawn)
2) O=C(Nc1ccc2c(c1)OCCO2)N1Cc2ccccc2-n2cccc2C1c1ccc(Cl)cc1 (stereo not drawn)
3) c1ccc(C2CNCc3ccccc32)cc1 (stereo not drawn)
4) O=c1cccc2n1CC1CC2CN(Cc2nnc(-c3cccc(Cl)c3)o2)C1 (stereo not drawn)
5) CN1CC[C@@]23CCCCC2C1Cc1ccc(O)cc13 (stereo partly drawn)
6) Cc1ccc2c(c1)Cc1c(C(=O)NC3CCCCC3)nn(-c3ccc(Cl)cc3Cl)c1-2

Compound,1,2,3,4,5,6
Anaer choline gr,i,i,i,i,i,i
Anaer choline gr early,0.44,1.1,0.54,0.13,-0.01,0.36

Another view of some results above.
Each structure is followed by: Anaer choline gr, Anaer choline gr early
(2) O=C(Nc1ccc2c(c1)OCCO2)N1Cc2ccccc2-n2cccc2C1c1ccc(Cl)cc1 (stereo not drawn)
→ i, 1.1
(3) c1ccc(C2CNCc3ccccc32)cc1 (stereo not drawn)
→ i, 0.54
(4) O=c1cccc2n1CC1CC2CN(Cc2nnc(-c3cccc(Cl)c3)o2)C1 (stereo not drawn)
→ i, 0.13
(5) CN1CC[C@@]23CCCCC2C1Cc1ccc(O)cc13 (stereo partly drawn)
→ i, -0.01

Further structures.
7) COc1cccc(CN2CCN(Cc3ccc(F)cc3)CC2)c1
8) CCCC[C@H]1C(=O)O[C@H](C)[C@H](NC(=O)c2cccc(NC=O)c2OC)C(=O)O[C@@H](C)[C@@H]1OC(=O)CC(C)C
9) COCCNC(=O)N1CCC2(C1)C(=O)N(C)c1ccc(OC)cc12 (stereo not drawn)
10) CCCS(=O)(=O)N1CCC2(C1)C(=O)Nc1ccc(OC)cc12 (stereo not drawn)
11) CC12NC(Cc3ccccc31)c1ccccc12 (stereo not drawn)
12) C#CC(C)(O)CC (stereo not drawn)

Compound,7,8,9,10,11,12
Anaer choline gr,i,i,i,i,i,i
Anaer choline gr early,0.09,-0.3,-0.65,0.27,-0.01,0.25

13) CC1(O)C[C@@]23C[C@@H](O)[C@@]4(O)[C@@H](C[C@H](O)C4(C)C)[C@](C)(O)[C@@H]2CCC1[C@H]3O (stereo partly drawn)
14) N#CC(C#N)=Cc1ccc([N+](=O)[O-])c(O)c1
15) C[N+]1(C)CCc2cc3c(cc2[C@H]1[C@@H]1OC(=O)c2c1ccc1c2OCO1)OCO3
16) O=C(COc1ccc(F)cc1)N1CCN(CCc2ccncc2)CC1
17) N=C(N)c1ccc(CS(=O)(=O)F)cc1
18) CN1CC[C@@]2(C)c3cc(O)ccc3N(C)C12 (stereo partly drawn)

Compound,13,14,15,16,17,18
Anaer choline gr,i,i,i,i,i,i
Anaer choline gr early,0.85,0.55&-1.6,0.71,-1.1,0.6,-0.53

19) CC(N)[C@H](O)c1ccc(O)c(O)c1 (stereo partly drawn)
20) CC[N+](CC)(CCCNC1=CC(=O)C(NCCC[N+](CC)(CC)Cc2ccccc2)=CC1=O)Cc1ccccc1
21) NCC(CS(=O)(=O)O)c1ccc(Cl)cc1 (stereo not drawn)
22) CCCn1c(=O)c2[nH]c(C3CCCC3)nc2n(CCCOC(=O)c2ccc(S(=O)(=O)F)cc2)c1=O
23) NP(N)(=O)NC(=O)c1ccc(F)cc1
24) NC(Cn1oc(=O)[nH]c1=O)C(=O)O (stereo not drawn)

Compound,19,20,21,22,23,24
Anaer choline gr,i,i,i,i,i,i
Anaer choline gr early,1.4,-1.5,0.48,1.1,-0.06&0.49,0.14

25) O=C(COc1ccc(F)cc1)N1CCN(CCc2ccccn2)CC1
26) CCC1(C2=NCCN2)Cc2ccccc2O1 (stereo not drawn)
27) CCCN1CC[C@@H]2c3cc(O)ccc3CC[C@@H]21
28) CCCCCCCCCCCCCCCC(=O)OC[C@H](COP(=O)([O-])OCC[N+](C)(C)C)OC(C)=O
29) CCC1(c2ccc(N)cc2)CCC(=O)NC1=O (stereo not drawn)
30) CC(=O)N1CC[N+](C)(C)CC1

Compound,25,26,27,28,29,30
Anaer choline gr,i,i,i,i,i,i
Anaer choline gr early,-1.6,0.6&-0.02&-0.31,-0.07,0.32,0.77&0.34&0.8,0.62

31) N#CC1=CN(c2ccc(F)c(F)c2)c2cc(F)ccc2S1(=O)=O
32) Clc1ccc(C2CC3CCC2N3)cn1 (stereo not drawn)
33) C[C@H]1O[C@H](OC2[C@@H](O)[C@@H](O)C(O)[C@H](O)[C@H]2O)[C@@H](N)C[C@@H]1N=C(N)C(=O)O (stereo partly drawn)
34) O=C(NC1CCCCC1)c1cc2cccnc2n(Cc2ccccc2)c1=O
35) O=C(CN1CC=C(c2cnn(-c3ccccc3)c2)CC1)N1CCN(c2ccccn2)CC1
36) COc1ccc2c(c1)C1(CCN(S(=O)(=O)c3cccs3)C1)C(=O)N2C (stereo not drawn)

Compound,31,32,33,34,35,36
Anaer choline gr,i,i,i,i,i,i
Anaer choline gr early,-0.12,0.47,-1.3,-0.25,-1.6,0.63

Full records, looked up by structure. Values in the order: Anaer choline gr | Anaer choline gr early
Profile of COc1ccc2c(c1)C1(CCN(S(=O)(=O)c3cccs3)C1)C(=O)N2C (stereo not drawn) → i | 0.63
Profile of O=C(CN1CC=C(c2cnn(-c3ccccc3)c2)CC1)N1CCN(c2ccccn2)CC1 → i | -1.6
Profile of N#CC1=CN(c2ccc(F)c(F)c2)c2cc(F)ccc2S1(=O)=O → i | -0.12
Profile of O=C(NC1CCCCC1)c1cc2cccnc2n(Cc2ccccc2)c1=O → i | -0.25

(next part)
37) COC(=O)[C@@H](N)CCCN/C(N)=N/[N+](=O)[O-]
38) CP(=O)(O)C1=CCNCC1
39) NC(N)=NOCCC(N)C(=O)O (stereo not drawn)
40) OC1CN2CCC1C(c1ccccc1)C2 (stereo not drawn)
41) O=C(NC(=O)c1c(F)cccc1F)Nc1cc(Cl)c(OC(F)(F)C(F)C(F)(F)F)cc1Cl (stereo not drawn)
42) Nc1ccc(CCN2CCN(c3cccc(C(F)(F)F)c3)CC2)cc1

Compound,37,38,39,40,41,42
Anaer choline gr,i,i,i,i,i,i
Anaer choline gr early,0.65,0.87,0.31,-0.85,0.23,-0.15

43) COc1ccc(C[C@@H]2NC[C@@H](O)[C@@H]2OC(C)=O)cc1
44) Cc1ccc2c(c1)C1(CCN(CCc3nc(-c4ccccc4)oc3C)CC1)OC(=O)N2
45) O=c1c2ccccc2[se]n1-c1ccccc1
46) CC[C@@H](CO)NC(=O)[C@@H]1C=C2c3cccc4[nH]cc(c34)C[C@H]2N(C)C1
47) CCOC(=O)c1cncn1C(C)c1ccccc1 (stereo not drawn)
48) O=C(O)CNC(=O)c1c(O)c2ccccc2n(Cc2ccccc2)c1=O

Compound,43,44,45,46,47,48
Anaer choline gr,i,i,i,i,i,i
Anaer choline gr early,0.6,0.08,-2.7&-1.9,0.18&0.56,0.23&0.02,0.47

49) COc1ccccc1CN1CCN(Cc2ccc(F)cc2)CC1
50) C[N+]1(CCC(C(N)=O)(c2ccccc2)c2ccccc2)CCCCC1
51) COc1ccc(C2N3CCCN23)cc1OC (stereo not drawn)
52) Cc1ccc(C)c(NC(=O)Cn2cc(C(=O)c3ccccc3)c3ccccc32)c1
53) NC(C(=O)O)c1cc(=O)[nH]o1 (stereo not drawn)
54) C/C(O)=C(\C#N)C(=O)Nc1cc(Br)ccc1Br

Compound,49,50,51,52,53,54
Anaer choline gr,i,i,i,i,i,i
Anaer choline gr early,0.39,-2.4,-1.3,0.9,-0.32,0.13

Random excerpt: 3 entries already listed, in no set order.
50) C[N+]1(CCC(C(N)=O)(c2ccccc2)c2ccccc2)CCCCC1
53) NC(C(=O)O)c1cc(=O)[nH]o1 (stereo not drawn)
51) COc1ccc(C2N3CCCN23)cc1OC (stereo not drawn)

Compound,50,53,51
Anaer choline gr,i,i,i
Anaer choline gr early,-2.4,-0.32,-1.3

Bioassay records as filed in PubChem BioAssay.

Some of the compounds tested; rates above refer to the full screens.
